TAAR1 antag: human TAAR1 antagonism. CHO RD-HGA16 TAAR1, Fluo-8 calcium fluorescence, antagonist. Q96RJ0. actives 1.5% (n = 360,000). inhibition, % at 3 µM;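 active means inhibition above a per-plate cutoff, the mean inhibition of test compounds on that plate plus 3 SD, cut at about 49% in these data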;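 further: 0% = DMSO plus EC80 beta-PEA response and 100% = DMSO alone without agonist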
Target sequence (Q96RJ0 whole entry, looked up): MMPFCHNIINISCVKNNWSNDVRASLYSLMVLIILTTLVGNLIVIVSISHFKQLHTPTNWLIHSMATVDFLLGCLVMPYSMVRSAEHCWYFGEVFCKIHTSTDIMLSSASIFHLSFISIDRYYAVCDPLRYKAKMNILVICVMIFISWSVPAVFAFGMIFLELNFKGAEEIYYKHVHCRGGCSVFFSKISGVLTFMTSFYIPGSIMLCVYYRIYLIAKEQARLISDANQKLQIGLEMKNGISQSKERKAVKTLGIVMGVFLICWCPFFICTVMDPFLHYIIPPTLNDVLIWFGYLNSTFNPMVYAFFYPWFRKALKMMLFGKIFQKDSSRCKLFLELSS
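Test system – hTAAR1-expressing CHO RD-HGA16 cells, Gα16-coupled · Reagent – β-PEA at EC80 concentration, post-compound challenge · Compound dosing – 3 µM, single point · Timing – 140 s kinetic read after compound, 140 s after agonist · Detection – Fluo-8 intracellular calcium dye fluorescence, real-time kinetic reads · Control set – DMSO and EC80 PEA controls · Repeats – n of 1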
CHO parental Ca: signal in parental CHO cells, OX1R antagonist counter-screen; inhibition, % at 5.6 µM; actives 0.63% (n = 330,000); parental CHO-K1, ATP-induced calcium, Fluo-8 fluorescence;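 active means inhibition above that plate's mean sample inhibition plus 3 SD, cut at about 26% in these data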;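 further: 0% = ATP-challenged DMSO wells and 100% = DMSO wells without ATP; some compounds past the cut are filed as inactive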
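Measured by: calcium-sensitive Fluo-8 fluorescence / Test system: CHO parental line / Controls: ATP-challenged DMSO wells low, unchallenged DMSO wells high / Measure: % inhibition / Compound: single nominal dose of 5.6 µM per compound / Replicates: single well per compound, no replicates / Reagent: ATP as calcium-mobilizing challenge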
OXTR potentiator: human OXTR potentiation; AID 2445; P30559; actives 0.061% (n = 320,000); activation, % at 3 µM; CHO-OTR cells, Fluo-8 calcium fluorescence, potentiator mode; 0% = oxytocin EC15, 100% = EC100;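 active means activation above that plate's cutoff, the mean activation of tested compounds plus 3 SD, cut at about 6.6% in these data, passing the limit was not always enough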;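 further: 100% uses oxytocin at 75 nM as the full agonist control; some results filed as inactive read as strong as hits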
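Assay system: CHO cell line stably expressing human OTR. Reagent: EC15 oxytocin agonist. Dosing: single dose, 3.0 µM nominal final compound concentration. Timing: compound 6 min at room temperature before oxytocin, 100 s read. Signal: kinetic Fluo-8 calcium fluorescence. Controls: oxytocin EC15 low and EC100 high.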
Starred values were filed as active, the others as inactive; & = joins results of further samples.

1	CN(C)[C@@H]1C(=O)C(C(N)=O)=C(O)[C@@]2(O)C(=O)C3=C(O)c4c(O)cccc4[C@@](C)(O)C3C[C@@H]12 (stereo partly specified)
  TAAR1 antag = -1.9
  CHO parental Ca = -0.1
  OXTR potentiator = -5.8

2	C[C@]12CCC(=O)C=C1CCC1C2CC[C@@]2(C)C1CC[C@@H]2O (stereo partly specified)
  TAAR1 antag = -7.5
  CHO parental Ca = -4.1
  OXTR potentiator = -0.6

3	C[C@@H]1O[C@@H](O[C@@H]2C=C3CC[C@@H]4C(CC[C@]5(C)[C@@H](c6ccc(=O)oc6)CC[C@]45O)[C@@]3(C)CC2)[C@H](O)[C@H](O)[C@H]1O (stereo partly specified)
  TAAR1 antag = 1.6
  CHO parental Ca = -4.2
  OXTR potentiator = -3.0

4	C[C@]12CCC3=C4CCC(=O)C=C4CC[C@H]3C1CC[C@@H]2O (stereo partly specified)
  TAAR1 antag = -7.8
  CHO parental Ca = -10.8
  OXTR potentiator = -9.5

5	COc1cccc([C@@]2(O)CCCC[C@@H]2CN(C)C)c1
  TAAR1 antag = -16.1
  CHO parental Ca = -8.0&-1.2
  OXTR potentiator = -0.3&-6.8

6	C[C@]12CCC3C(CC[C@H]4CC(=O)CC[C@]34C)C1CCC2=O (stereo partly specified)
  TAAR1 antag = 0.4
  CHO parental Ca = -2.6
  OXTR potentiator = -2.8

7	CN1[C@@H]2CC[C@H]1CC(OC(=O)C1C=Nc3ccccc31)C2 (stereo partly specified)
  TAAR1 antag = -1.4
  CHO parental Ca = -1.4
  OXTR potentiator = -8.3

8	C[N+](C)(C)CC#CCOC(=O)Nc1cccc(Cl)c1
  TAAR1 antag = -5.9
  CHO parental Ca = 4.8
  OXTR potentiator = -4.9

9	CC(C)(C)NCC(O)c1cc(Cl)c(N)c(Cl)c1 (stereo unspecified)
  TAAR1 antag = 7.2
  CHO parental Ca = -13.6
  OXTR potentiator = -2.8

10	COc1ccc(Cc2nccc3cc(OC)c(OC)cc23)cc1OC
  TAAR1 antag = -6.5
  CHO parental Ca = 18.2
  OXTR potentiator = -8.9

Screen by screen, from the results shown:
Nos. 1–8 in TAAR1 antag: -1.9, -7.5, 1.6, -7.8, -16.1, 0.4, -1.4, -5.9

Looked up one by one from the entries so far:
2	C[C@]12CCC(=O)C=C1CCC1C2CC[C@@]2(C)C1CC[C@@H]2O (stereo partly specified)
  TAAR1 antag = -7.5
  CHO parental Ca = -4.1
  OXTR potentiator = -0.6

5	COc1cccc([C@@]2(O)CCCC[C@@H]2CN(C)C)c1
  TAAR1 antag = -16.1
  CHO parental Ca = -8.0&-1.2
  OXTR potentiator = -0.3&-6.8

7	CN1[C@@H]2CC[C@H]1CC(OC(=O)C1C=Nc3ccccc31)C2 (stereo partly specified)
  TAAR1 antag = -1.4
  CHO parental Ca = -1.4
  OXTR potentiator = -8.3

Given bar-delimited: two of the compounds above.
no. | mol | TAAR1 antag | CHO parental Ca | OXTR potentiator
9 | CC(C)(C)NCC(O)c1cc(Cl)c(N)c(Cl)c1 (stereo unspecified) | 7.2 | -13.6 | -2.8
10 | COc1ccc(Cc2nccc3cc(OC)c(OC)cc23)cc1OC | -6.5 | 18.2 | -8.9

High-throughput results (PubChem BioAssay)

Some of the compounds tested; the hit share may differ from the screen's.
